Assay outcomes (PubChem)
Rango release inh – qHTS Assay for Inhibitors of RanGTP induced Rango (Ran-regulated importin-beta cargo) - Importin beta complex dissociation. Snurportin-1 (Homo sapiens) + GTP-binding nuclear protein Ran (Homo sapiens) + Importin …. Biochemical FRET Rango-importin beta, RanGTP-induced dissociation. Potency, µM (series often up to 46.1 µM), without a hit: top-dose activity change, negative = inhibition. 340,000 tested, 0.071% active. AID 540253, 2011; active means falling FRET ratio curve, often poorly fitted, with flat reads before Ran was added; inconclusive means other falling curves, or compound fluorescence or quenching; inactive means flat or rising ratio curve;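 also: potency is read from the fitted curve at half-maximal effect; % of control where 0% means no effect; nearly all actives have a fitted effect of over 45% in size; -100% = wells without RanGTP and RCC1; the record marks most hits as doubtful in a second field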
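Compounds preincubate 5 min with complex of recombinant Rango and importin beta in PBS with 1 mM DTT. Ran (0.6 uM) loaded with 2 mM GTP plus 0.2 uM RCC1 starts dissociation; FRET is recorded 45 min later.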
Rango complex inh – qHTS Assay for Inhibitors of Rango (Ran-regulated importin-beta cargo) - Importin beta complex formation. 340,000 tested, 0.031% active. Potency, µM (highest dose often 92.2 µM), for the others: at the highest dose inhibition of complex formation. AID 540263, 2011. Importin subunit beta-1 (Homo sapiens), Q14974. Rango CFP/YFP FRET sensor + importin beta, 45 min; active = rising FRET ratio curve, often small or poorly fitted; inconclusive = mostly compound fluorescence or quenching in the first reads; inactive = flat curves in all reads;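 also: potency is read from the fitted curve at half-maximal effect; 0% = DMSO wells and 100% = buffer wells lacking importin beta; nearly all actives have a fitted effect of over 15% in size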
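FRET biosensor Rango (snurportin 1 IBB between N-terminal EYFP and C-terminal Cerulean), 50 nM in PBS/1 mM DTT/0.02% Tween-20/0.1% BSA, preincubated 5 min RT with compound; 0.125 microM importin beta added, 45 min RT, CFP/YFP FRET ratio read.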
GLA inh pH 4.5 – qHTS Assay for Inhibitors of Human alpha-Galactosidase at pH 4.5 | Alpha-galactosidase A (Homo sapiens), P06280 | purified enzyme, 4-MU-alpha-Gal fluorescence, pH 4.5 | activity change, negative = inhibition, % at 105 µM | 230,000 tested, under 10 active | AID 1467, 2008; inconclusive = small, poorly fitted or top-dose-only inhibition, or a rising curve; inactive = flat fitted curve, though single readings scatter; no compound was filed as active;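 also: 0% = full activity with enzyme and -100% = basal without enzyme; dose as in the result columns while the protocol names 77 µM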
Target sequence (P06280 whole entry, looked up): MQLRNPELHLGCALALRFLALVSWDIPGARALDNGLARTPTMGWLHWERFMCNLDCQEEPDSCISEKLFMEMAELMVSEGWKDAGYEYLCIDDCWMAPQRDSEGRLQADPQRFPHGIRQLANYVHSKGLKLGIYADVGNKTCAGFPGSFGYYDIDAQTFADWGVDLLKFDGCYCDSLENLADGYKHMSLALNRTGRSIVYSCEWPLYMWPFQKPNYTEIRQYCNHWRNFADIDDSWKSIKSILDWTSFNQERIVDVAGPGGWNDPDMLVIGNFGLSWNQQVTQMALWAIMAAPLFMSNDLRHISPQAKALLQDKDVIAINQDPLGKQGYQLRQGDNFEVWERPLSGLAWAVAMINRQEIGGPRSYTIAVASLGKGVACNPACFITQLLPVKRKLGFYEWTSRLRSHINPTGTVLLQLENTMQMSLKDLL
miR-21 FLuc – qHTS Assay for Modulators of miRNAs and/orActivators of miR-21; HeLa miR-21 FLuc reporter, luciferase, 48 h; Potency, µM (titrated, usually from 38.3 µM), for inactives: at the highest dose reporter change, positive = more light; 340,000 tested, under 10 active; AID 2288, 2010; active = well fitted rising curve with a large enough effect; inconclusive = small, poorly fitted or top-dose-only effect; inactive = no such curve, though single readings can be large or run the other way;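 also: % of control where 0% means no effect; miR-21 action dims this reporter so a rising signal means less miR-21 action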
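HeLa cells endogenously expressing miR-21, stably carrying CMV-driven firefly luciferase with a downstream miR-21 binding site, 2000 cells/well. Titrations up to approximately 40 uM, 48 hours; luciferase luminescence read.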
The depositor's hits bear a star; u = inconclusive; x = no result given.

Under each structure: Rango release inh	Rango complex inh	GLA inh pH 4.5	miR-21 FLuc
1	CSc1ccc(S(=O)(=O)NCc2ccccc2)cc1
  -22%	-2.1%	16	-1%
2	COc1ccc(C)c2sc(N(CCN(C)C)C(=O)/C=C/c3cccs3)nc12
  6%	1.1%	x	4%
3	OC(COc1ccc(F)cc1Cl)CN1CCC(Cc2ccccc2)CC1 (stereo unspecified)
  0%	-0.2%	x	9%
4	Cc1ccc(NCc2ccccc2F)cc1
  28%	2.1%	2	-2%
5	COCc1nnc(NS(=O)(=O)c2ccc(Br)cc2)s1
  -9%	0.3%	-6	-3%
6	O=C1NCN(CCO)CN1
  -16%	0.7%	3	2%
7	CCc1cc(-c2[nH]ncc2-c2nc3ccccc3n2C)c(O)cc1O
  8%	2.3%	-3	2%
8	Cc1cc(C)nc(NCC(O)CNc2ccccc2Cl)n1 (stereo unspecified)
  2%	-2.7%	-1	8%
9	CCCSc1ccc([C@@H]2[C@H]3C(=O)N(CC)C(=O)[C@H]3[C@]3(C(=O)OC)CCCCN23)cc1OC
  -4%	0.2%	x	x
10	CCC1CCc2sc(C(=O)NNC(=O)c3ccncc3)cc2C1 (stereo unspecified)
  -15%	1.1%	x	x
11	CC(C)(C)n1nc2c(c1NC(=O)COc1ccccc1F)CS(=O)(=O)C2
  15%	-1.4%	-9	-4%
12	Cc1ccc(N2C(N)=C(C#N)C(c3cccnc3)C3=C2CCCC3=O)cc1 (stereo unspecified)
  -13%	u	3	1%
13	O=C(COC(=O)/C=C/c1ccc(C(F)(F)F)cc1)Nc1ccc2[nH]c(=O)[nH]c2c1
  25%	-0.6%	x	x
14	COCCN(CC(=O)Nc1cccc(C)c1C)C(=O)C1(c2ccc(Cl)cc2)CCC1
  24%	3.1%	x	x
15	CC(=O)NC(Cc1ccccc1F)C(=O)NC1CCN(c2ncccc2[N+](=O)[O-])CC1 (stereo unspecified)
  -4%	9.3%	-7	-2%
16	CC(C)C(=O)NC(=S)NCC(=O)c1ccccc1
  0%	0.7%	-21	-34%
17	COc1ccc(C(=O)C[N+]2(C)CCOCC2)cc1
  1%	-0.4%	-15	-1%
18	CCOc1ccc(C(=O)Nc2cc(-c3nc4ccccc4[nH]3)ccc2C)cc1[N+](=O)[O-]
  -7%	2.6%	5	-3%
19	Cc1nn(CC(C)C)c(Cl)c1C(=O)N(C)CC(=O)Nc1c(Cl)cccc1Cl
  0%	0.5%	x	-1%
20	Cc1cccc(-n2ccc(=O)c(C(=O)Nc3ccc(S(=O)(=O)Nc4nccs4)cc3)n2)c1
  0%	-3.2%	x	-13%
21	NS(=O)(=O)c1ccc(CCNC(=O)CSc2nc3ccccc3c(=O)n2CCN2CCOCC2)cc1
  -10%	0.2%	6	4%
22	COc1ccc(C(C(=O)NCC2CCCO2)N(C(=O)Cn2nnc3ccccc32)c2ccc(NC(C)=O)cc2)cc1 (stereo unspecified)
  -25%	1.5%	x	0%
23	Cc1cccc(/C(N)=N/OC(=O)c2ccc(F)cc2)c1
  -1%	-1.0%	-4	-64%
24	CCCOc1ccc(C2c3c(oc4cc(C)c(C)cc4c3=O)C(=O)N2CCCN2CCOCC2)cc1 (stereo unspecified)
  u	0.3%	-8	-1%
25	Cc1ccnc(NCc2ccc(Br)cc2)c1
  -3%	1.8%	x	-21%
26	Cc1cc(C(F)(F)F)nc(SCC(=O)Nc2ccccc2)n1
  -4%	5.6%	2	3%
27	CCOC(=O)c1nn(-c2ccccc2)c2nc(-c3ccc(OC)cc3)c(C#N)c(=O)n12
  2%	-1.7%	-3	-2%
28	O=C(CN1CCN(S(=O)(=O)c2cc(Cl)ccc2Cl)CC1)Nc1ccc2c(c1)OCCO2
  -2%	0.7%	-10	5%
29	COC(=O)C1C(=O)CC(C)(O)C(C(=O)OC)C1c1ccc2c(c1)OCO2 (stereo unspecified)
  -1%	-2.7%	-2	-2%
30	C=CCn1c(COc2cccc(C)c2)nnc1SCC(=O)c1c[nH]c2c(CC)cccc12
  -3%	-0.3%	11	-3%
31	CCCNC(=O)CNC(=O)c1ccc(C#N)cc1
  6%	-3.4%	x	x
32	COc1ccc(CCNC(=O)c2cccn2C)cc1
  -13%	u	x	-2%
33	Cc1ccc(OCC(=O)NC(=S)Nc2cccc(C)n2)cc1
  -2%	4.1%	5	-2%
34	COc1ccccc1CN1C[C@@H]2C[C@@H](c3ccc(Cl)cc3)N3CCC[C@@]23C1=O
  -10%	-1.8%	4	2%
35	CC1=CC(C)(C)N(C(=O)CNC2CCCC2)c2cc(C)ccc21
  35%	-0.3%	-2	-2%
36	O=C(O)c1ccc(CN(c2ccccn2)S(=O)(=O)c2ccccc2)cc1
  7%	-0.5%	5	-1%
37	O=C1Nc2ccc(F)cc2C12Nc1ccccc1-c1nnc(SCc3ccccc3F)nc1O2 (stereo unspecified)
  -1%	-0.1%	0	-9%
38	Cc1ccccc1NC(=O)CSc1nc(=O)n(CCN2CCOCC2)c2c1CCCC2
  -13%	-1.8%	x	x
39	CC(=O)c1ccc(N=Nc2c(C)[nH][nH]c2=O)cc1
  -9%	1.6%	x	x
40	Cc1cc(NC(=O)c2cc(C)on2)no1
  2%	2.3%	-1	-8%
41	CCOc1cc(/C=C2\C(=N)N3N=C(N4CCCCC4)SC3=NC2=O)ccc1OC(=O)c1ccco1
  -18%	u	x	-2%
42	COc1cccc(/C=C2\SC(=S)N(CC(=O)N(C)C3CCS(=O)(=O)C3)C2=O)c1 (stereo unspecified)
  4%	3.1%	x	0%
43	CC[C@@]1(c2cccc(C)c2)C(=O)N(C(=O)OC)N1C(=O)OC
  1%	-3.8%	x	3%
44	COc1ccc(CN2C(=O)C(Cc3ccccc3)Nc3ncnc(N4CCOCC4)c32)cc1 (stereo unspecified)
  0%	u	x	x
45	CCN(CC)C(=O)COc1ccc(Br)cc1Cl
  12%	-0.1%	1	-13%
46	CCN(C(=O)CN1CCCc2cc(C)ccc21)c1c(N)n(Cc2ccccc2)c(=O)[nH]c1=O
  u	u	x	x
47	O=C(COC(=O)CNS(=O)(=O)c1ccccc1)NC12CC3CC(CC(C3)C1)C2
  -9%	2.2%	3	-8%
48	Cc1nc2ccccn2c1P(=Nc1ccccc1)(N(C)C)N(C)C
  15%	-1.4%	4	-9%
49	CCCNC(=O)C(Cc1cccc(OC)c1)NC(=O)c1ccc(C(C)(C)C)cc1 (stereo unspecified)
  4%	-0.6%	x	x
50	Cc1cc(O)c(C(=O)/C=C/c2c(F)c(F)c(F)c(F)c2F)c(=O)o1
  u	u	x	-27%
51	Cc1cc(C)cc(OCC(=O)OCC(=O)c2ccc3c(c2)NC(=O)CO3)c1
  11%	3.3%	0	2%
52	COc1ccc(N(C(=O)CNC(=O)c2ccco2)C(C(=O)NC2CCCCC2)c2cccnc2)cc1 (stereo unspecified)
  -17%	0.4%	x	-3%
53	Cc1ccn2cc(-c3ccc(Br)cc3)nc2c1
  -4%	2.8%	2	20%
54	O=C(Cc1ccccc1[N+](=O)[O-])NCC(=O)c1ccc2c(c1)OCO2
  -1%	0.7%	x	x
55	CC1CC(C)CN(C(=O)COC(=O)Cc2c[nH]c3ccccc23)C1 (stereo unspecified)
  0%	-0.9%	x	x
56	COc1ccc(OCC(=O)Nc2ccccc2C(=O)N2CCOCC2)cc1
  1%	1.0%	3	-4%
57	CC(C)CCN(CCC(C)C)C/C(O)=C(\C#N)c1nc(-c2ccccc2)cs1
  -7%	4.6%	-12	4%
58	O=C(COC(=O)/C=C/c1cccc(C(F)(F)F)c1)NCc1ccc(F)cc1
  -11%	0.4%	0	-2%
59	COc1cc(CCC(=O)OCC(=O)Nc2ccc(F)c(F)c2)cc(OC)c1OC
  -3%	2.5%	x	1%
60	Oc1ccc(Cl)cc1CNCc1ccc(C(F)(F)F)cc1
  -9%	-4.2%	x	x

Continued:
Under each structure: Rango release inh	Rango complex inh	GLA inh pH 4.5	miR-21 FLuc
61	CC(=O)Nc1ccc(OCC(O)CN2CCN(c3ccc(F)cc3)CC2)cc1 (stereo unspecified)
  13%	0.4%	x	-1%
62	C/C(=N/NC(=O)c1ccncc1)c1ccc(NC(=O)c2ccc(Cl)cc2Cl)cc1
  1%	-2.4%	x	-33%
63	O=C(Nc1nccs1)C(c1ccccc1)N1CCCC1 (stereo unspecified)
  29%	-0.4%	10	8%
64	CN(C(=O)c1ccncc1)c1nnc(-c2cccnc2)s1
  9%	1.0%	-4	-12%
65	Nc1nonc1-n1nnc(C(=O)O)c1-c1cccs1
  1%	0.7%	11	-8%
66	COc1ccc(-c2cc(C(F)(F)F)n3nc(C(=O)Nc4cc(C)on4)cc3n2)cc1OC
  u	u	2	-5%
67	COCCNC(=S)N1CCN(c2nc3ccccc3s2)CC1
  -17%	-0.8%	8	-29%
68	CC(C)(C)n1nc2c(c1NC(=O)c1cc(Cl)ccc1[N+](=O)[O-])CS(=O)(=O)C2
  10%	-1.3%	x	-4%
69	O=C(NC1CCCCC1)c1cccc(OCc2ccccc2)c1
  -19%	0.6%	x	-1%
70	Cc1nnc(NC(=O)CCSc2ccccc2)s1
  -3%	9.8%	8	-4%
71	Cc1cccc(NC(=O)c2ccc(Cl)c(S(=O)(=O)N3CCCC3)c2)n1
  -4%	0.5%	x	-30%
72	O=C(C1CCN(S(=O)(=O)N2CCOCC2)CC1)N1CCN(Cc2ccc3c(c2)OCO3)CC1
  0%	u	6	1%
73	Cc1ccc(S(=O)(=O)NCC(c2cccnc2)N(C)C)cc1 (stereo unspecified)
  -20%	0.1%	0	-5%
74	CN(Cc1ccccc1)C(=O)c1cccc(NC(=O)Cc2cccc([N+](=O)[O-])c2)c1
  8%	3.6%	x	x
75	Cc1cc(=O)[nH]c(N/N=C/c2c(C)oc3ccccc23)n1
  -4%	0.2%	2	5%
76	O=c1c2cn[nH]c2[nH]c(=S)n1-c1cccc(Cl)c1
  9%	2.5%	8	-11%
77	COc1ccc(-c2cnc3c(c2)CCC3(C#N)C#N)cc1
  -10%	-1.7%	-2	16%
78	Cc1ccc(OCC(=O)Nc2ccc3c(c2)OCO3)c(C)c1
  6%	-0.6%	1	0%
79	Cc1cc2[nH]c(=O)c(=O)[nH]c2cc1S(=O)(=O)Nc1cccc(Cl)c1C
  6%	-0.6%	x	-4%
80	O=C(NC1CCCCCCC1)C1CCC(CNc2c(N3CCCC3)c(=O)c2=O)CC1 (stereo unspecified)
  17%	-0.5%	5	-7%

The list is partial, so the mix of outcomes need not match the whole.
